Calb FLC = affects C. albicans growth with fluconazole; C. albicans CaCi-2 (fluconazole-resistant clinical isolate) + fluconazole, Alamar Blue growth, 48 h; growth inhibition, % (no concentration beside the values); 0.57% of 300,000 active;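 active means most replicates above 75%; inconclusive means exactly half above 75%; inactive means most below 75%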;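 further: all wells also contain fluconazole at 8 µg/ml as a sub-toxic cotreatment; 0% = median of DMSO wells and 100% = median of geldanamycin control wells; wells of about 8 µL received 7.5 nL stock; the first replicate is given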
RanGTP-Imp inh = disruptors of Ran-importin-beta complex formation – biochemical, FRET, CFP-Ran, YFP-importin-beta, homogeneous, primary screen. cell-free CFP-Ran/YFP-importin-beta FRET ratio. inhibition, % (concentration not given with the values). 1.1% of 300,000 active;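 active means most replicates above 15%; inconclusive means exactly half above 15%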;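 further: 0% = DMSO wells and 100% = Ran loaded with GDP instead of GTP; wells of about 40 µL received 100 nL stock; the first replicate is given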
Beta apoptosis = beta cell apoptosis inhibition. INS-1E cytokine-induced death, ATP luminescence, 48 h; percent of positive-control rescue, neutral wells zero. protection from apoptosis, % (test concentration not listed). AID 435005. 0.8% of 300,000 active;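 active means all replicates at 75% or more, or half of them and the mean; inconclusive means half reach 75% but not the mean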;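 further: 0% = cytokine-treated negative control wells and 100% = positive control rescue; higher means more ATP so stronger rescue from cytokine killing; wells of about 40 µL received 100 nL stock; the first replicate is given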
ALR inh = human ALR oxidase inhibition via reduced H2O2; purified ALR, DTT oxidation, H2O2 HRP-luminol luminescence; AID 485317; 3.8% of 290,000 active; P55789; inhibition, % (no concentration beside the values);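 active means mean and each replicate at 75% or more; inconclusive means only one of the two met; inactive means neither met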;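 further: stock transfer was 7.5 nL into about 7.5 µL; 0% = neutral wells and 100% = wells with inactivated enzyme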
Target sequence (P55789 whole entry, looked up): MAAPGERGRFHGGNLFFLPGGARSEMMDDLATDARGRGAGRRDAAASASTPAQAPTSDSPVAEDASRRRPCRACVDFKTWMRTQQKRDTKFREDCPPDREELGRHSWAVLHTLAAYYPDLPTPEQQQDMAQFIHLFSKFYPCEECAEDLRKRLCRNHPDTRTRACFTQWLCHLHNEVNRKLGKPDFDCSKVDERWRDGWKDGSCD
T cruzi inh = T. cruzi replication inhibition. T. cruzi beta-gal in NIH3T3, luminescence, 90 h. inhibition, % (concentration not given with the values). 1.4% of 300,000 active;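 active means mean inhibition across valid replicates above about 55%, limit read from the data; inconclusive means mean below that limit but half or more replicates reach it; inactive means mean below it, under half of replicates reach it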;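 further: signal also drops with host cell toxicity which is not excluded here; 0% = plate median of DMSO wells and 100% = zero luminescence signal; higher percent means less beta-gal luminescence so fewer parasites; stock transfer was 50 nL into about 50 µL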
MLL AF4-AF9 inh = inhibitors of human MLL-AF4/AF9 interaction; AlphaScreen, biotin-AF4 peptide binding to FLAG-AF9; inhibition, % at 10 µM; 0.47% of 350,000 active; AID 651704;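 active means every replicate reaching a set inhibition limit, whatever the replicate mean, cut at about 25% in these data; inconclusive means mean inhibition reaches that limit but some replicates miss it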;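 further: 0% = plate neutral control median and 100% = total signal loss; the record names both 10 and 1 µM as test concentration; the first replicate is given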
Target sequence (P42568 whole entry, looked up): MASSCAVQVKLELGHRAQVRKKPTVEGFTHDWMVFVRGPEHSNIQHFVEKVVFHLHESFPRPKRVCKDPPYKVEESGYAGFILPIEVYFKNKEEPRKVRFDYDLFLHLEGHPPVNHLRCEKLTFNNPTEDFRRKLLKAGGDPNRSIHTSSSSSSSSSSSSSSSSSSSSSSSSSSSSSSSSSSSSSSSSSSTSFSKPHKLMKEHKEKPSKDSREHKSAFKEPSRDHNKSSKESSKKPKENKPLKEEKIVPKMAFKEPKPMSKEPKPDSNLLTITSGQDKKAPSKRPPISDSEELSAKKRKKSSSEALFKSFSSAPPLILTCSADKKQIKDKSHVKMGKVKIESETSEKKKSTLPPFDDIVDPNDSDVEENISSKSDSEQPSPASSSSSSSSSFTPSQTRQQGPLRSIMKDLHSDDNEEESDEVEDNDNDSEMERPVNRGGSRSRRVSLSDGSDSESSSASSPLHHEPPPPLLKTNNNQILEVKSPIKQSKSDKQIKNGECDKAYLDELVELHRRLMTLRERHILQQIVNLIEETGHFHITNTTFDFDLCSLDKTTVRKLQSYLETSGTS
FGF22 binding = binders of recombinant human FGF22 by thermal shift; SYPRO orange fluorescence; percent of sucrose octasulfate shift, DMSO zero; Q9HCT0; 1.5% of 340,000 active; calls only at 9.99 µM;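 active means melting point raised past a set limit in the mean and every replicate; inconclusive means no clear call; three in four hits are not shown here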
Target sequence (Q9HCT0 whole entry, looked up): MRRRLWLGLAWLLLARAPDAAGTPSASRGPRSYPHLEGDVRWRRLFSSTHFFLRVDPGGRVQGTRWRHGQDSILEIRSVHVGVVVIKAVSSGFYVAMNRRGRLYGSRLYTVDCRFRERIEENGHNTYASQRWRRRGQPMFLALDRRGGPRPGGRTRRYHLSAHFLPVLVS
rRNA inh HTS = selective bacterial rRNA inhibition in E. coli | E. coli WT GFP vs humanized-ribosome RFP mutants, fluorescence, 24 h; hits give low values; DMSO median 0, no signal -100 | GFP signal change (wild-type ribosome), % (concentration not given with the values) | 1.6% of 350,000 active | AID 720706;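 active means significant combined selectivity score with lowered wild-type GFP, culture density cut under 30%, mutant RFP and density less affected; inactive means any of these conditions unmet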; further: one replicate is shown; some compounds called inactive have numbers as strong as hits
rRNA inh HTS OD600 = further read-out of rRNA inh HTS, marked with its call; OD600 change, %; measured here: OD600 growth;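 optical density of the mix in the first replicate; 0 = DMSO median and -100 = no signal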
rRNA inh HTS RFP = recorded beside rRNA inh HTS, whose call it bears; RFP signal change, %; measured here: RFP humanized mutant strains;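 first replicate; 0 = DMSO median and -100 = no signal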
Numbers without * were called inactive; i = inactive; ? = inconclusive; nt = no result given. An excerpt, so the mix of outcomes need not match the whole.

SMILES | Calb FLC | RanGTP-Imp inh | Beta apoptosis | ALR inh | T cruzi inh | MLL AF4-AF9 inh | FGF22 binding | rRNA inh HTS | rRNA inh HTS OD600 | rRNA inh HTS RFP
O=[N+]([O-])c1cccc2ccc(/C=C/c3ccc(F)cc3)nc12 | -8 | -5.6 | -5 | -16 | 29 | nt | nt | nt | nt | nt
OCc1cccc[n+]1CCc1ccccc1 | 20 | 6.4 | -5 | -2 | 0 | 0.0 | i | 30 | 25 | 2.8
CCCCC[n+]1ccn(C2=C([O-])c3ccccc3C(=O)/C2=N\S(=O)(=O)c2ccccc2)c1 | 2 | -2.1 | 90* | -23 | 1 | nt | nt | nt | nt | nt
COC(=O)c1ccccc1-c1c2ccc(=N)cc-2oc2cc(N)ccc12 | nt | nt | 99* | nt | nt | -7.0 | i | 64 | -79 | 31
Cc1ccc(-c2nnc(SCc3nc(N)nc(Nc4ccccc4C)n3)n2N)cc1 | 22 | ? | 2 | -4 | -12 | nt | nt | nt | nt | nt
O=[N+]([O-])c1ccc(N(c2ccccc2)c2ccccc2)cc1 | -7 | -68 | 10 | 0 | 39 | nt | nt | nt | nt | nt
Cc1cc(C)n(CC(=O)NNC(=O)c2ccc(OC(F)(F)F)cc2)n1 | nt | nt | -1 | -2 | nt | -1.6 | i | 3 | 12 | -3.0
Cc1cc(C)cc(OCC(=O)Nc2ccc(N3CCN(C(=O)c4ccco4)CC3)cc2)c1 | -8 | -10 | -1 | -3 | -25 | 2.2 | i | 10 | 6 | 7.4
NS(=O)(=O)c1ccc(NC(=S)N2CCN(c3ccc(Cl)c(Cl)c3)CC2)cc1 | 11 | 1.9 | 16 | nt | -51 | nt | nt | nt | nt | nt
CCOC(Cn1c(-c2ccc(OC)cc2)nc2ccccc21)OCC | 5 | 0.5 | 2 | -3 | 12 | nt | nt | nt | nt | nt
Cn1c(=O)c(S(=O)C2CCCCC2)c(O)c2ccccc21 (stereo not given) | 3 | 4.9 | -5 | -10 | -11 | -0.6 | i | -6 | -15 | -6.4
CC1CCCC(C)N1c1nnc(NC(=O)c2cc(-c3ccc(Br)cc3)on2)s1 (stereo not given) | -7 | 0.8 | 2 | -8 | -6 | 14 | i | 4 | 6 | 13
Nc1cc(C(=O)OCC(=O)N2CCCC2=O)ccc1Cl | 4 | -2.6 | -17 | 0 | -16 | 11 | i | 5 | 9 | -0.4
O=C(CN(Cc1ccc(Cl)cc1)C(=O)c1csnn1)NCc1ccccc1 | 0 | -2.3 | -3 | -2 | 15 | 1.6 | i | nt | nt | nt
O=C(O)c1ccc(N/N=C2/CCCc3ccccc32)cc1 | 7 | 8.4 | -4 | 98* | -2 | -10 | i | -8 | -14 | -5.7
Cc1cc(NC(=O)c2cc(C)on2)n(-c2ccccc2)n1 | 3 | 3.5 | -1 | nt | -10 | nt | nt | nt | nt | nt
COc1ccccc1N1CCN(C(=O)c2ccc(Cl)c(S(=O)(=O)N3CCCC3)c2)CC1 | -1 | -0.9 | 0 | 6 | 1 | 1.4 | i | -7 | -11 | 0.8
Cc1cc(C)c(C#N)c(SCc2ccc(F)cc2)n1 | 4 | ? | 6 | -3 | -9 | -2.0 | i | 12 | 8 | 2.5
Cc1cc(C)n(CC2CC(=O)N(c3ccc(Cl)cc3)C2=O)n1 (stereo not given) | 1 | 3.3 | -1 | -11 | -20 | -7.5 | i | -1 | -14 | -1.7
Cc1ccc(-c2nnc(SCC(N)=O)nc2-c2ccc(C)cc2)cc1 | 8 | -6.5 | -1 | 3 | 18 | 9.7 | i | -7 | -22 | -1.2
O=C(O)c1ccc(N=Nc2c(O)ccc3ncccc23)cc1 | ? | -2.8 | 47 | ? | -4 | 11 | i | -6 | -1 | -2.6
CCOC(=O)CN(C(=O)COc1nc(C)cc(C)c1C#N)c1cccc(Cl)c1 | 6 | 6.3 | -5 | -13 | -1 | -1.2 | i | 5 | 9 | -0.6
COC(=O)CCNc1n[nH]c(=O)[nH]c1=O | -16 | -3.7 | -6 | -11 | -1 | -0.9 | i | 8 | 8 | 1.3
CCOc1ccccc1NC(=O)C1CCN(S(=O)(=O)c2c(C)noc2C)CC1 | -3 | 1.6 | -1 | 0 | 2 | nt | nt | nt | nt | nt
Cc1ccc2c(c1)N(C(=O)CCC(=O)N1CCOCC1)CC(C)O2 (stereo not given) | 8 | 7.2 | 0 | 11 | -17 | -14 | i | 4 | 2 | 0.0
CCCS(=O)(=O)c1c(S(=O)(=O)CCC)c2c3ccccc3ccn2c1C(=O)OC | 2 | 4.3 | 2 | 8 | 51 | nt | nt | nt | nt | nt
CC1CN(Cc2nc3c(c(=O)n(C)c(=O)n3C)n2CCCc2ccccc2)CC(C)O1 (stereo not given) | 35 | -1.9 | 0 | nt | 2 | nt | nt | nt | nt | nt
O=C(COc1ccccc1)NCCc1nc2ccccc2[nH]1 | -3 | -0.1 | -3 | nt | 3 | nt | nt | nt | nt | nt
O=c1[nH]nc(CNc2cccc(C(F)(F)F)c2)c2ccccc12 | 10 | -0.2 | 4 | -14 | 3 | -1.7 | i | -1 | -8 | 1.7
COc1cccc(OCC(=O)O/N=C(\N)c2ccncc2)c1 | 0 | ? | -2 | nt | -5 | -0.7 | i | 5 | 6 | 0.4
Cc1ccc2c(c1)N(C(=O)CCC(=O)Nc1ccccc1Cl)CC(C)O2 (stereo not given) | 3 | 1.3 | -5 | -4 | -9 | 0.4 | i | -5 | -40 | -3.5
CCC(=O)Nc1nc2ccc(NC(C)=O)cc2s1 | -14 | 4.2 | 0 | -23 | -7 | nt | nt | nt | nt | nt
O=C(Nc1nnc(-c2cccs2)s1)C1CC1 | 7 | -1.6 | -2 | 2 | 2 | 3.7 | i | 4 | 2 | -4.0
CC(C)CCN(C)C1CCN(S(=O)(=O)c2cccc(C(F)(F)F)c2)CC1 | -1 | 3.0 | -1 | -1 | 27 | nt | nt | nt | nt | nt
O=C(c1ccccc1)N1CCN=C1c1ccccc1 | 0 | 2.0 | -1 | 0 | 9 | nt | nt | nt | nt | nt
CCOc1cc(NC(=S)Nc2ccccc2)c(OCC)cc1NC(=O)c1ccc(OC)cc1 | 2 | 2.3 | 9 | -11 | 29 | nt | nt | nt | nt | nt
Cc1cc(Cl)ccc1OCCCC(=O)NN | 2 | 0.9 | -4 | 2 | 7 | -2.3 | nt | 3 | -2 | 2.3
CCN(CC(=O)Nc1ccccc1C(F)(F)F)C(=O)c1ccccc1SCC(=O)N1CCCC1 | -5 | nt | 4 | -7 | 0 | 9.9 | i | 0 | 9 | -2.0
CC(=O)c1cccc(Nc2c([N+](=O)[O-])c(=O)oc3ccccc23)c1 | -2 | -1.2 | 0 | -6 | -7 | -0.5 | i | nt | nt | nt
O=C(CCc1ccccc1)N=C1SC2CS(=O)(=O)CC2N1Cc1ccc(F)cc1 (stereo not given) | -4 | -4.8 | 2 | -2 | 8 | -14 | nt | -1 | 0 | -3.6
CCN(CC)S(=O)(=O)c1ccc(C(=O)NN(C)C2=NS(=O)(=O)c3ccccc32)cc1 | -2 | 2.5 | 0 | 4 | -7 | 3.4 | i | 3 | 3 | -4.1
O=C1CSC(=Nc2cccc(C(=O)O)c2)N1 | 1 | 0.9 | -3 | -14 | -1 | 0.3 | i | 12 | 16 | 0.6
CCOC(=O)C(C)Oc1ccsc1C(=O)OC (stereo not given) | 6 | 4.1 | -7 | -1 | -16 | -3.5 | i | -35 | -40 | -8.5
CCOC(=O)N1CCN(C(=O)c2ccccc2SCC(=O)NCC2CCCCC2)CC1 | -3 | ? | 4 | -1 | -1 | -18 | i | -3 | -1 | 1.1
O=C(CNS(=O)(=O)c1ccc(C(=O)N2CCCCC2)cc1)N1CCCCC1 | -1 | -1.0 | 8 | -5 | 7 | nt | nt | nt | nt | nt
Cc1cccn2c(=O)c3cc(C#N)c(=NC(=O)c4cccs4)n(CCCOC(C)C)c3nc12 | 3 | 81* | 8 | nt | 30 | -2.4 | nt | 3 | -10 | -1.2
CCOC(=O)C1CN(S(=O)(=O)c2cccs2)c2ccc(CC(=O)OC)cc2O1 (stereo not given) | -10 | 0.1 | -3 | -2 | -15 | -1.7 | i | -16 | -19 | 1.4
CCN(CC)S(=O)(=O)c1ccc2nnn(OCC(=O)Nc3cccc(C#N)c3)c2c1 | -1 | -13 | -4 | nt | 11 | nt | nt | nt | nt | nt
CCCCCN1C2=NCCN2c2ccccc21 | nt | 1.9 | -1 | 96* | 5 | nt | nt | nt | nt | nt
COc1ccc(S(=O)(=O)N2CCN(Cc3cc(OC)c(O)c(OC)c3)CC2)cc1 | -4 | -0.2 | -4 | -30 | 2 | -0.9 | i | 5 | 6 | -1.8

Next part.
SMILES | Calb FLC | RanGTP-Imp inh | Beta apoptosis | ALR inh | T cruzi inh | MLL AF4-AF9 inh | FGF22 binding | rRNA inh HTS | rRNA inh HTS OD600 | rRNA inh HTS RFP
Cc1cc(F)ccc1S(=O)(=O)N1CCCOC1CNC(=O)C(=O)NCc1ccccn1 (stereo not given) | 0 | -2.2 | -14 | -4 | -7 | -2.7 | i | 6 | 9 | 0.5
C=CCn1c(-c2ccc(OC)cc2)nc2nc3ccccc3nc21 | 23 | 0.4 | 8 | -4 | 10 | nt | nt | nt | nt | nt
O=C(NCC(c1ccco1)N1CCCCC1)c1ccc(COc2ccccc2)cc1 (stereo not given) | 6 | 0.4 | 9 | 4 | 21 | 2.9 | i | -15 | -17 | -1.4
CCOCCCn1c(=S)[nH]c2cc(C(=O)NCCc3ccccc3)ccc2c1=O | -19 | -0.3 | 2 | 3 | -5 | 5.1 | i | 1 | 2 | -2.3
CCNC(=S)N1CCN(c2nc(CC)nc3sc4c(c23)CCCC4)CC1 | 2 | ? | 36 | -6 | 31 | 0.1 | i | -24 | -21 | -3.2
COc1ccc(N2C(=O)C3CCCN3C2c2cccs2)cc1 (stereo not given) | 1 | ? | nt | -12 | -8 | -5.8 | i | 5 | 6 | -2.0
CCOC(=O)CN(C(=O)CSc1nnc(COc2ccc(OC)cc2)n1C)c1ccccc1 | 0 | -1.2 | -10 | -2 | 3 | nt | nt | nt | nt | nt
CN(CC(=O)Nc1ccccc1Cl)C(=O)CCNC(=O)Nc1ccccc1 | nt | nt | -1 | -6 | nt | -4.9 | i | 6 | 2 | -2.4
CN(CC(=O)Nc1ccc(Cl)c(C(F)(F)F)c1)C(=O)c1cn2ccccc2n1 | -6 | 2.1 | 1 | nt | -3 | -3.2 | i | -24 | -48 | 17
COc1ccc(Cc2nc3ccc(C(=O)N(C)CCO)cc3o2)cc1 | -4 | 0.4 | -7 | nt | -9 | 1.2 | i | 12 | 5 | 7.0
COc1ccc(CC(O)COS(N)(=O)=O)cc1 (stereo not given) | -2 | -3.0 | nt | 19 | -10 | 1.5 | i | 14 | 17 | 6.0
CC1CN=C(c2cccn2Cc2ccc(F)cc2Cl)O1 (stereo not given) | 0 | -2.2 | -6 | -3 | -17 | nt | nt | nt | nt | nt
O=C(O)CNS(=O)(=O)c1ccc2c3c(cccc13)C(=O)N2 | -2 | 9.1 | -5 | -47 | 0 | 2.0 | i | 24 | 16 | 2.8
CCN1CCCC1Cn1cnc2c([nH]c3cc(OC)ccc32)c1=O (stereo not given) | 5 | -0.8 | 0 | -12 | 1 | nt | nt | 4 | 6 | -4.1
Cc1cccnc1NC(=O)c1ccc2nc(N)sc2c1 | -2 | 4.0 | -4 | -1 | -5 | nt | nt | nt | nt | nt
